Assay outcomes deposited in PubChem by National Center for Advancing Translational Sciences (NCATS).
D2 PAM: Beta-Arrestin HTS for Positive Allosteric Modulators of the Human D2 Dopamine Receptor: Potentiators | 360,000 compounds, 0.23% hits | D(2) dopamine receptor (Homo sapiens), P14416 | potentiation, % (test concentration not listed) | AID 624464, 2012 | DiscoveRx D2 beta-arrestin cells, luminescence, 90 min; 100% = 57 uM dopamine signal; active = potentiation of 50% or more; inconclusive = 30% to 50%; inactive = 30% or less;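 also: compound concentration not given in the record; tested on top of an EC20 dose of dopamine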
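D2 cells co-treated with compound plus 50 nM dopamine (EC20) for 90 min at 37 deg C to detect potentiation. Beta-arrestin recruitment was read as enzyme-fragment luminescence after 1 h at ambient temperature. Full response was set by 57 uM dopamine.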
Six1-Eya2 blk: qHTS Assay for Inhibitors of the Six1/Eya2 Interaction; AlphaScreen GST-Six1/His-Eya2 binding, biochemical; hits give low values; control for the full effect not named in the record; activity change, % (test concentration not listed); 360,000 compounds, 0.56% hits; in the data active = activity change below about -65%; inconclusive = about -30% to -65%; inactive = above about -30%; also: % is scaled to controls: 0 for no effect and ±100 for the full control effect
Target sequence (O00167 whole entry, looked up): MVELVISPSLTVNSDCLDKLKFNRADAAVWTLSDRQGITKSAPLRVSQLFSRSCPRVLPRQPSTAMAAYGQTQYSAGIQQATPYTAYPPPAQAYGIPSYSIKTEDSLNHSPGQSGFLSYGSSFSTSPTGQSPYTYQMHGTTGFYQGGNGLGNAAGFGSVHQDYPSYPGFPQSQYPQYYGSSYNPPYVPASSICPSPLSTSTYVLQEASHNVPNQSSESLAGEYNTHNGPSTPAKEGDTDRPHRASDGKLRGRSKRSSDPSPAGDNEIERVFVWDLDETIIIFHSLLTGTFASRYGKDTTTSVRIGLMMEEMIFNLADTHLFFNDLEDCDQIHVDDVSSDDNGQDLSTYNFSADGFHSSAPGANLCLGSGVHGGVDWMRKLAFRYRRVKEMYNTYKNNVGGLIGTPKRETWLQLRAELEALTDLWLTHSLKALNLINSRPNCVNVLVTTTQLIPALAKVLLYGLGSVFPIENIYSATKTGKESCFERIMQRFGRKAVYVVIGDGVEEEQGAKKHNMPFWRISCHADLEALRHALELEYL
Target sequence (Q15475 whole entry, looked up): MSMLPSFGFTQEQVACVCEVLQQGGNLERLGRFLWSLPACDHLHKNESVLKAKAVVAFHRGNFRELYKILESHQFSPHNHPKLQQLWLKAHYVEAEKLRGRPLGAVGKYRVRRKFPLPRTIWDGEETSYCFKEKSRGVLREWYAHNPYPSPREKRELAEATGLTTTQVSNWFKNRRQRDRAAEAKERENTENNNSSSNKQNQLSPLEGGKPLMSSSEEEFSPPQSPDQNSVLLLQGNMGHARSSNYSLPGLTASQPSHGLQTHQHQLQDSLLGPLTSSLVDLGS
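AlphaScreen luminescence read after one hour at 37 °C in darkness. Pin-transferred compounds met GST-Six1 and His-Eya2 protein (5X stock 250 nM/500 nM) plus glutathione donor and Ni-chelate acceptor beads (5X, 50 ug/mL).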
D2 agonist: Beta-Arrestin HTS for Positive Allosteric Modulators of the Human D2 Dopamine Receptor: Agonists; 360,000 compounds, 0.084% hits; activation, % (concentration not given with the values); DiscoveRx PathHunter D2 beta-arrestin, luminescence, 90 min; 100% = 57 uM dopamine signal; D(2) dopamine receptor (Homo sapiens), P14416; AID 624465, 2012; in the data active = activation above about 40%; inconclusive = about 15% to 40%; inactive = below about 15%; also: the text of the record calls up to 30% inactive
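DiscoveRx PathHunter D2 beta-arrestin cells (2,100/well) attached overnight, then compound-stimulated 90 min at 37 C in HBSS/10 mM HEPES/0.1% Tween-20 buffer; beta-galactosidase complementation read by luminescence after 1 h at ambient temperature. Dopamine 57 uM final (EC100) as control.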
gsp agonist: qHTS for Agonist of gsp, the Etiologic Mutation Responsible for Fibrous Dysplasia/McCune-Albright Syndrome: qHTS. Potency, µM (highest dose often 76.9 µM), for inactives: top-dose activation (cAMP increase), most hits filed as activators. gsp mutant cells, cAMP HTRF, 30 min; control for the full effect not named in the record. 340,000 compounds, 0.13% hits; active = well fitted activation curve with a large enough effect; inconclusive = small, poorly fitted or top-dose-only effect, or another doubt; inactive = no such curve, though single readings can be large or run the other way; cell line not stated here;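 also: phosphodiesterase inhibitor Ro 20-1724 added with compounds to block cAMP breakdown; potency is read from the fitted curve at half-maximal effect; nearly all actives have a fitted effect of over 60% in size; about a fifth of the inactives were tested at one dose only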
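Cells stably selected in G418 were plated at 2000/well, grown 16-24 hr, then given compounds in DMSO with the PDE inhibitor […] (300 uM solution added) for 30 min at 37C; cAMP was read by HTRF.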
gsp antagonist: qHTS for Antagonists of gsp, the Etiologic Mutation Responsible for Fibrous Dysplasia/McCune-Albright Syndrome: qHTS; gsp-mutant cells, cAMP HTRF, 30 min; control for the full effect not named in the record; Potency, µM (doses to about 76.9 µM), for inactives: at the highest dose activity change, negative = inhibition, hits mostly inhibitors; 340,000 compounds, 0.4% hits; AID 624288, 2012; active = falling curve of any shape with a large fitted effect; inconclusive = falling curve, mostly with a smaller effect; inactive = flat or rising curve; cell line not stated here;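 also: intracellular cAMP measured with PDE inhibitor Ro 20-1724 present during compound exposure; potency is read from the fitted curve at half-maximal effect; % is scaled to controls: 0 for no effect and ±100 for the full control effect; nearly all actives have a fitted effect of over 65% in size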
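Cells in G418 medium, seeded 16-24 h, 37C; buffer exchange to DPBS + 1 mM CaCl2, 0.5 mM MgCl2, 0.05% BSA; cpds in DMSO + […] (300 uM stock), 30 min 37C; HTRF cAMP detection.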
CtBP-E1A blk: qHTS Assay for Inhibitors of the CtBP/E1A Interaction. CtBP / adenovirus E1A interaction (AlphaScreen). AlphaScreen GST-E1A/His-CtBP binding, 1536-well; hits give low values; control for the full effect not named in the record. activity change, % (test concentration not listed). 340,000 compounds, 0.49% hits. AID 651724, 2012; in the data active means activity change below about -65%; inconclusive means about -30% to -65%; inactive means above about -30%; also: % is scaled to controls: 0 for no effect and ±100 for the full control effect
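Steps: dispense buffer (Tris pH 8.0, NaCl 300 mM, TCEP 1 mM, BSA, Tween 20); add 5X protein mix (GST-E1A, His-CtBP, 125 nM each); pin 23 nL compound; 2 h at 37 °C, dark; add 5X beads (50 ug/mL); 1 h; read.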
Starred values were filed as active, the others as inactive; ? = inconclusive; . = no result given; [ ] = another dose, or the depositor's remark.

Start of the listing, in advance:
Value order – D2 PAM | Six1-Eya2 blk | D2 agonist | gsp agonist | gsp antagonist | CtBP-E1A blk
#1 Cn1c(C(=O)NCc2cccs2)cc2c(=O)n(C)c3ccccc3c21
  -1 | -2 | -1.6 | 6% | 10% | -1
#2 CC(=O)C(Cc1ccc(Cl)nc1)Cc1ccc(Cl)nc1
  -1 | 6 | 1.7 | ? | 14% | 8

The list itself, from the first entry:
Value order – D2 PAM | Six1-Eya2 blk | D2 agonist | gsp agonist | gsp antagonist | CtBP-E1A blk
#1 Cn1c(C(=O)NCc2cccs2)cc2c(=O)n(C)c3ccccc3c21
  -1 | -2 | -1.6 | 6% | 10% | -1
#2 CC(=O)C(Cc1ccc(Cl)nc1)Cc1ccc(Cl)nc1
  -1 | 6 | 1.7 | ? | 14% | 8
#3 Cc1cccc(C)c1OCC(=O)Nn1c(COc2ccccc2)nc2ccccc2c1=O
  -11 | ? | -2.2 | 0% | -14% | 11
#4 CCOC(=O)CCc1c(C)nc2c(c(C)nn2-c2ccccc2)c1C
  -6 | 3 | -0.3 | 7% | -2% | 3
#5 Cc1ccc(C(=O)NCCNC(=O)CN2CCCC2)cc1
  7 | 6 | -0.5 | 4% | 12% | 9
#6 CC1(C)NC(=O)N(CC(O)CN(c2ccccc2)S(=O)(=O)c2ccccc2)C1=O (centres undefined)
  -3 | 4 | -2.4 | -14% | 10% | 7
#7 COC(=O)C1c2ccccc2-c2ccccc21
  -9 | 1 | 5.7 | ? | 1% | -1
#8 COc1cc(OC)c(C(=O)OCC(=O)Nc2nnc(-c3ccccc3)o2)cc1OC
  -1 | ? | -0.3 | 1% | -14% | ?
#9 Cc1ccc(NC(=O)CC2SCCNC2=O)cc1[N+](=O)[O-] (centres undefined)
  -4 | 10 | -6.2 | 15%[15.4 µM] | 14% | 2
#10 COc1ccccc1/C=C/C=NC1C(=O)N(c2ccccc2)[N+](C)=C1C (centres undefined)
  -10 | 2 | -8.2 | 12% | -9% | -12
#11 C/C(=N\Nc1nc(-c2ccccn2)nc2ccccc12)c1ccc(F)cc1
  -4 | -7 | 1.7 | 8% | -6% | .
#12 CCc1ccc(NC(=O)Cn2c(SC)nc3ccccc32)cc1
  -3 | 2 | -1.1 | 5% | -6% | 0
#13 O=S(=O)(NCCc1c[nH]c2ccccc12)c1ccccc1
  -4 | -8 | -0.1 | 1%[15.4 µM] | -3% | 0
#14 CC(OC(=O)CCc1ccccc1)C(=O)Nc1ncc(Cl)cc1Cl (centres undefined)
  4 | -4 | -1.7 | -5% | -1% | 7
#15 O=C1c2ccccc2C(=O)c2cc(S(=O)(=O)Nc3ccccc3)ccc21
  ? | ? | 14 | ? | 0% | -29

(list continues)
Value order – D2 PAM | Six1-Eya2 blk | D2 agonist | gsp agonist | gsp antagonist | CtBP-E1A blk
#16 O=C(OCC(=O)N1CCCc2ccccc21)c1cc(S(=O)(=O)N2CCOCC2)ccc1O
  1 | 4 | -1.2 | -20% | -14% | .
#17 Cc1cnn(Cc2cccnc2)c1N
  0 | 7 | 2.4 | -3%[15.4 µM] | 6% | -3
#18 COc1ccc(NC(=O)/C(Cl)=C(/Cl)S(=O)(=O)Cc2ccc(C)cc2)cn1
  -19 | ? | -1.0 | -36%[inhibitor] | -8% | ?
#19 CSc1cc(C)nc(N(C)C(C)=O)n1
  3 | 0 | -1.0 | 14% | 1% | 0
#20 COc1ccc(CC(=O)Nc2nc(-c3ccc(F)c(F)c3)cs2)cc1OC
  15 | -3 | 1.3 | -6%[15.4 µM] | ? | -4
#21 Nc1ccc(C#Cc2c(-c3ccsc3)oc3ccc(N4CCOCC4)cc23)cc1
  -4 | -2 | -3.2 | . | 5% | 3
#22 COc1ccc(CNC(=O)C2CCN(S(=O)(=O)c3ccc4nc5c(c(C(=O)O)c4c3)CCCC5)CC2)cc1
  -2 | ? | -6.6 | -18% | . | -14
#23 CCOC(=O)C1CCCN(C2=NC(=O)/C(=C/c3ccc(O)c(OCC)c3)S2)C1 (centres undefined)
  -13 | 3 | -2.6 | -3%[15.4 µM] | -12% | -3
#24 Cc1cccc(NC(=O)CSCc2c(C)noc2C)c1C
  -22 | -1 | -6.0 | -55%[inhibitor] | 6% | 1
#25 CCn1c(SCC(=O)NC(=O)NCc2ccco2)nc2sc(C)c(C)c2c1=O
  -11 | -7 | -4.2 | ? | -5% | -1
#26 CN(Cc1ccccc1)C(=O)Cn1nnc(-c2ccccc2)c1COc1ccccc1
  -14 | 1 | -3.0 | . | . | 0
#27 Cc1cccc(OCc2nnc(SCC(=O)c3cccs3)n2C)c1C
  -13 | 2 | -1.7 | 6% | 11% | 9
#28 CCOc1ccccc1NC(=S)N1CCCCCC1
  -2 | 7 | 2.0 | -2% | -3% | 7
#29 Cc1ccc(CNC(=O)C2CCN(S(=O)(=O)c3ccc4c(c3)CC(C)N4C(=O)C3CC3)CC2)cc1 (centres undefined)
  -5 | -4 | 1.0 | ? | -23% | -2
#30 CN1CCN(c2ncnc3c2ncn3[C@H]2CN(Cc3ccc4c(c3)OCO4)C[C@@H](CO)O2)CC1
  -11 | -1 | -4.1 | . | . | 1

A draw from above in order of SMILES length, rising.
Value order – D2 PAM | Six1-Eya2 blk | D2 agonist | gsp agonist | gsp antagonist | CtBP-E1A blk
#17 Cc1cnn(Cc2cccnc2)c1N
  0 | 7 | 2.4 | -3%[15.4 µM] | 6% | -3
#26 CN(Cc1ccccc1)C(=O)Cn1nnc(-c2ccccc2)c1COc1ccccc1
  -14 | 1 | -3.0 | . | . | 0
#30 CN1CCN(c2ncnc3c2ncn3[C@H]2CN(Cc3ccc4c(c3)OCO4)C[C@@H](CO)O2)CC1
  -11 | -1 | -4.1 | . | . | 1

Next structures:
Value order – D2 PAM | Six1-Eya2 blk | D2 agonist | gsp agonist | gsp antagonist | CtBP-E1A blk
#31 Cc1ccc(S(=O)(=O)N(Cc2ccccc2)c2ccccc2C(=O)Nc2ccccc2C(=O)NCc2ccco2)cc1
  -1 | -3 | -3.9 | -25% | -6% | -13
#32 CCCCN1CCNC[C@@H]1Cc1ccc(O)cc1
  -11 | 11 | -4.0 | 0% | 6% | .
#33 CN(C(=O)C1CCC(=O)N(Cc2ccccc2F)C1)C1CCOCC1 (centres undefined)
  2 | -1 | -2.1 | 8% | 11% | 6
#34 COc1ccc(-c2cc(C(=O)N3CCCC3)c3ccccc3n2)cc1
  6 | -3 | 0.2 | -16% | -4% | -8
#35 CC(=O)c1ccc(NC(=O)C2CCN(S(=O)(=O)c3ccc4c(c3)N(C(C)=O)CCO4)CC2)cc1
  -12 | -2 | -3.1 | ? | 8% | -1
#36 CN1CCN(C(=O)/C=C/c2ccc([N+](=O)[O-])cc2)CC1
  -8 | 2 | 1.1 | 9% | 1% | 7
#37 O=C1NCCCC1C(=O)Nc1cccc(C(F)(F)F)c1 (centres undefined)
  -24 | 11 | -0.4 | ? | -9%[15.4 µM] | -7
#38 CC(=C/c1ccco1)/C=N/N1CCN(c2ccccc2)CC1
  -6 | 1 | -2.7 | 21% | -11% | 6
#39 CSc1nc2sc3c(c2c(=O)[nH]1)CCc1ccccc1-3
  -4 | 1 | 2.9 | 1% | -11% | -1
#40 CCc1nc2ccc(C(=O)Nc3cccc(NS(C)(=O)=O)c3)cn2c1N(CCC(C)C)CCN(C)C
  -9 | -4 | -3.3 | . | . | 1
#41 O=C(COc1ccccc1Cl)Nc1ccc(Cl)cn1
  -24 | 10 | -4.1 | -23% | 12% | 15
#42 O=C(c1cnn2c(C(F)F)cc(C3CC3)nc12)N1CCOCC1
  -3 | -5 | -2.1 | -29% | 11% | 0
#43 CCCCCC1NC(=O)NC1CCCCCC(=O)O (centres undefined)
  -6 | 3 | -2.5 | -1% | 1% | 7
#44 CC(NC(=O)CCNS(=O)(=O)c1cccc2nonc12)c1ccccc1 (centres undefined)
  -7 | -1 | -4.4 | -3%[15.4 µM] | 2% | 6
#45 Fc1ccc(Nc2nc(N3CCOCC3)c3ccccc3n2)cc1
  -25 | 7 | -2.0 | 9% | -11% | 12

More structures:
Value order – D2 PAM | Six1-Eya2 blk | D2 agonist | gsp agonist | gsp antagonist | CtBP-E1A blk
#46 COc1ccccc1CC(NC(C)=O)C(=O)NC1CCN(c2nnnn2-c2ccccc2)CC1 (centres undefined)
  -5 | -1 | -3.1 | -20% | -19% | 2
#47 CCOC(=O)C1=C(O)c2ccccc2C(=O)/C1=C\c1ccc(C)cc1
  15 | -22 | 14 | -4% | 11% | -10
#48 Cc1coc2c(C)c3oc(=O)c(CCC(=O)NCCN4CCOCC4)c(C)c3cc12
  -28 | -19 | -1.7 | . | -1% | -18
#49 C/C(NC(=O)c1ccccc1)=C1/C(=O)CC2C1C2(C)C (centres undefined)
  -13 | -4 | -1.1 | 3% | -8% | -3
#50 COc1ccccc1N1CCN(c2nc(C)cc(C)c2C#N)CC1
  1 | -1 | -4.4 | -74%[inhibitor] | -5% | 3
#51 CCOC(=O)N1CCN(Cc2nc(N)nc(Nc3ccc(OC)cc3)n2)CC1
  -8 | -2 | -0.4 | 5% | 11% | -6
#52 Cc1ccnc2nc(C(=O)OCC(=O)c3ccc(NC(=O)CC(C)C)cc3)nn12
  1 | 4 | 3.9 | ? | 9% | 0

Gathered by group, those above with a Cl atom (4)
Value order – D2 PAM | Six1-Eya2 blk | D2 agonist | gsp agonist | gsp antagonist | CtBP-E1A blk
#2 CC(=O)C(Cc1ccc(Cl)nc1)Cc1ccc(Cl)nc1
  -1 | 6 | 1.7 | ? | 14% | 8
#14 CC(OC(=O)CCc1ccccc1)C(=O)Nc1ncc(Cl)cc1Cl (centres undefined)
  4 | -4 | -1.7 | -5% | -1% | 7
#18 COc1ccc(NC(=O)/C(Cl)=C(/Cl)S(=O)(=O)Cc2ccc(C)cc2)cn1
  -19 | ? | -1.0 | -36%[inhibitor] | -8% | ?
#41 O=C(COc1ccccc1Cl)Nc1ccc(Cl)cn1
  -24 | 10 | -4.1 | -23% | 12% | 15

Some entries already given, limited to gsp antagonist:
item	canonical_smiles	gsp antagonist
50	COc1ccccc1N1CCN(c2nc(C)cc(C)c2C#N)CC1	-5%
48	Cc1coc2c(C)c3oc(=O)c(CCC(=O)NCCN4CCOCC4)c(C)c3cc12	-1%
46	COc1ccccc1CC(NC(C)=O)C(=O)NC1CCN(c2nnnn2-c2ccccc2)CC1 (centres undefined)	-19%
